GLA inh pH 4.5 = blocks human alpha-galactosidase A at pH 4.5; activity change, negative = inhibition, % at 105 µM; 230,000 tested, under 10 active; purified enzyme, 4-MU-alpha-Gal fluorescence, pH 4.5; AID 1467; inconclusive = small, poorly fitted or top-dose-only inhibition, or a rising curve; inactive = flat fitted curve, though single readings scatter; no compound was filed as active;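 also: 0% = full activity with enzyme and -100% = basal without enzyme; dose as in the result columns while the protocol names 77 µM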
Target sequence (P06280 whole entry, looked up): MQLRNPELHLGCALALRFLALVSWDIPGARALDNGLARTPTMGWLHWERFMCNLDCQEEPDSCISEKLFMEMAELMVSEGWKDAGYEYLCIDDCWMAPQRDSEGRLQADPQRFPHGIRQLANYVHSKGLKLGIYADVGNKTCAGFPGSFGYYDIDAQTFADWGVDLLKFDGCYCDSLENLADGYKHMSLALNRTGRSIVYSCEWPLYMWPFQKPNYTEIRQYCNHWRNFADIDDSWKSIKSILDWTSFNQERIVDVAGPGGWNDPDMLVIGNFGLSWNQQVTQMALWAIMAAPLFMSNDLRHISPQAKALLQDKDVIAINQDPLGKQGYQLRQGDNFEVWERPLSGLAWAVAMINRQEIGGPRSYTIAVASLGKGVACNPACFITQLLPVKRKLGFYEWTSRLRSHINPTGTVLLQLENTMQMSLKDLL
Rango-impB inh = Rango-importin beta binding inhibition; 340,000 tested, 0.031% active; AID 540263; Rango CFP/YFP FRET sensor + importin beta, 45 min; Potency, µM (doses to about 92.2 µM), for inactives: at the top dose inhibition of complex formation; active = rising FRET ratio curve, often small or poorly fitted; inconclusive = mostly compound fluorescence or quenching in the first reads; inactive = flat curves in all reads;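 also: potency is read from the fitted curve at half-maximal effect; 0% = DMSO wells and 100% = buffer wells lacking importin beta; nearly all actives have a fitted effect of over 15% in size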
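FRET biosensor (snurportin 1 IBB flanked by EYFP and cerulean), 50 nM, with compound 5 min, then 0.125 microM importin beta in PBS, 1 mM DTT, 0.02% Tween-20, 0.1% BSA. CFP/YFP ratio read after 45 min at room temperature; pre-read flags interference.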
miR-21 FLuc = raises the signal of a miR-21 reporter; HeLa miR-21 FLuc reporter, luciferase, 48 h; Potency, µM (top dose mostly 38.3 µM), for the others: at the top dose reporter change, positive = more light; 340,000 tested, under 10 active; active = well fitted rising curve with a large enough effect; inconclusive = small, poorly fitted or top-dose-only effect; inactive = no such curve, though single readings can be large or run the other way;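 also: % of control where 0% means no effect; miR-21 action dims this reporter so a rising signal means less miR-21 action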
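HeLa cells endogenously expressing miR-21, stably carrying CMV-driven firefly luciferase with a downstream miR-21 binding site, 2000 cells/well. Titrations up to approximately 40 uM, 48 hours; luciferase luminescence read.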
Rango dissoc inh = prevents RanGTP from dissociating the Rango-importin beta complex | O95149+P62826 | Biochemical FRET Rango-importin beta, RanGTP-induced dissociation | Potency, µM (doses to about 46.1 µM), for the others: top-dose activity change, negative = inhibition | 340,000 tested, 0.071% active; active means falling FRET ratio curve, often poorly fitted, with flat reads before Ran was added; inconclusive means other falling curves, or compound fluorescence or quenching; inactive means flat or rising ratio curve;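 also: potency is read from the fitted curve at half-maximal effect; % of control where 0% means no effect; nearly all actives have a fitted effect of over 45% in size; -100% = wells without RanGTP and RCC1; the record marks most hits as doubtful in a second field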
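Two FRET readings bracket the reaction: one 5 min after compound meets Rango–importin beta, another 45 min after RanGTP-RCC1 (0.6 uM Ran, 0.2 uM RCC1, 2 mM GTP) is added. Only the second defines inhibition.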
* = called active by the depositor; ? = inconclusive; / = no result given; & = joins results of further samples.

GLA inh pH 4.5	miR-21 FLuc	Rango dissoc inh	Rango-impB inh	Compound
/	-7%	5%	2.8%	Cc1ccc(C(=O)NC2CC(C)(C)NC(C)(C)C2)cc1Cl
-3	0%	-13%	?	CCN1Cc2c(/C=C/c3ccccc3)nc3ccc(OC)cc3c2N(c2cccc(Cl)c2)C1
/	/	-22%	1.1%	OCCN1c2ccccc2CCc2ccccc21
-6	-6%	0%	-1.1%	Cc1cc(C)c(/C([O-])=C(/C(=S)Nc2ccc(SC(F)F)cc2)[n+]2ccccc2)cc1C
/	/	-22%	?	C[C@H](CO)N1C[C@H](C)[C@@H](CN(C)Cc2ccncc2)Oc2c(NC(=O)C3CC3)cccc2C1=O
-2	-4%	-1%	1.2%	O=C(COc1ccc2c(-c3ccccc3)cc(=O)oc2c1)NCc1cccs1
8	-3%	1%	0.0%	CC(C)Cn1c(-c2ccc(Br)o2)n[nH]c1=S
-4	-1%	?	?	CCC(=O)c1cc2c(C)cc(=O)oc2c(C)c1OC(C)=O
1	-29%	2%	0.2%	CN(C)CCCN(C(=O)c1ccco1)c1nc2ccc(F)cc2s1
/	/	-14%	-2.4%	COc1ccc(NC(=O)CSCC(=O)Nc2nnc(C)s2)cc1

Full records, quoted from the list.
O=C(COc1ccc2c(-c3ccccc3)cc(=O)oc2c1)NCc1cccs1 reads GLA inh pH 4.5 = -2; miR-21 FLuc = -4%; Rango dissoc inh = -1%; Rango-impB inh = 1.2%
Cc1ccc(C(=O)NC2CC(C)(C)NC(C)(C)C2)cc1Cl reads GLA inh pH 4.5 = /; miR-21 FLuc = -7%; Rango dissoc inh = 5%; Rango-impB inh = 2.8%

Just Rango dissoc inh and GLA inh pH 4.5, for 2 of the compounds above:
smiles	Rango dissoc inh	GLA inh pH 4.5
C[C@H](CO)N1C[C@H](C)[C@@H](CN(C)Cc2ccncc2)Oc2c(NC(=O)C3CC3)cccc2C1=O	-22%	/
CCN1Cc2c(/C=C/c3ccccc3)nc3ccc(OC)cc3c2N(c2cccc(Cl)c2)C1	-13%	-3

The listing continues:
GLA inh pH 4.5	miR-21 FLuc	Rango dissoc inh	Rango-impB inh	Compound
-6	-5%	-4%	-4.9%	Cc1ccc(SCC(=O)NC(=O)NCc2ccco2)c(C)c1
-4	-6%	17%	-0.1%	CCn1c(CCNC(=O)c2ccccc2Cl)n[nH]c1=S
/	25%	-13%	0.7%	COc1ccc(C)cc1S(=O)(=O)N1CCCC(C(=O)N2CCN(c3ccccc3F)CC2)C1 (stereo not drawn)
-3	-17%	-13%	-1.8%	O=[N+]([O-])c1ccc(N2CCN(S(=O)(=O)c3ccccc3)CC2)c2cccnc12
-11	-1%	14%	3.8%	CCOc1ccc(CCNC(=O)COC(=O)Cn2cnc3ccccc3c2=O)cc1OCC
/	8%	2%	-0.1%	COc1cccc(N2CCN(S(=O)(=O)c3ccc4c(c3)N(C(C)=O)CCO4)CC2)c1
2	-3%	5%	0.3%	O=C(NNC(=S)NCc1ccccc1)c1ccc(Br)o1
6	-9%	-3%	-0.6%	O=C(CCC(=O)Nc1ccccc1)NCCO
-3	-1%	5%	-4.9%	CCOC(=O)N1CCN(c2c(N3CCc4ccccc43)c(=O)c2=O)CC1
/	/	3%	0.9%	Cc1ccc(NS(=O)(=O)c2cccc(C(=O)N(C)Cc3cccs3)c2)cc1
/	-1%	-3%	-0.9%	Cc1c(NC(=O)c2cnc(Cl)c(Cl)c2)c(=O)n(-c2ccccc2)n1C
3	-1%	-1%	0.7%	COc1ccc(CN2CC(C(=O)NCCc3ccccc3)CC2=O)cc1 (stereo not drawn)
/	/	-4%	2.1%	COc1cc2sc(-c3ccccc3OC)c(-c3ccc(OCCN4CCCCC4)cc3)c2cc1OC
?	-2%	11%	0.0%	CCOC(=O)c1ccccc1NC(=O)CN1CCC(n2nnc3cc(C(F)(F)F)ccc32)CC1
0	-2%	-2%	5.1%	Cc1cc(C)cc(N(CC(=O)N2CCN(Cc3ccccc3)CC2)S(=O)(=O)c2c(C)noc2C)c1
-26	-16%	-28%	?	C/C(=N\NC(=O)c1cc2ccccc2cc1O)c1ccc2c(c1)OCO2
/	/	-4%	-3.6%	Cc1cc2c(=O)n(C)c(SCC(=O)NCC3CCCO3)nc2s1 (stereo not drawn)
-10	-2%	5%	-1.8%	COCCNC(=O)c1ccc(CN2CCc3ccccc3C2)cc1
5	1%	16%	-0.3%	COc1cccc(-n2nnnc2SCC(=O)Nc2ccc3c(c2)OCCO3)c1
-3	1%	1%	3.7%	CN(C1=NC(=O)CS1)c1ccc(O)cc1
/	-21%	-14%	?	CCS(=O)(=O)C1=NN2C(=N)/C(=C\c3ccc(OCCOc4cccc(OC)c4)c(OC)c3)C(=O)N=C2S1
/	/	4%	3.4%	CN(CC(=O)Nc1ccc(Cl)c(C(F)(F)F)c1)C(=O)C1CC(=O)N(Cc2ccco2)C1 (stereo not drawn)
/	-25%	-8%	-2.0%	CC(C)(C)C1CCC(C(=O)Nc2nccs2)CC1 (stereo not drawn)
4	-4%	3%	1.7%	CCCCCCCc1nc2c(=O)n(C)c3ccccc3c2o1
1	-2%	1%	-1.9%	CCCCC(=O)Nc1ccc(Br)cc1C(=O)O
/	-45%	-15%	0.5%	O=C(c1ccco1)N1CCN(c2ncnc3c(-c4ccc(Cl)cc4)nsc23)CC1
4	-46%	2%	9.6%	Clc1nc2ccccc2cc1-c1nnn(-c2ccccc2)n1
/	0%	3%	1.2%	COc1ccc(C(=O)NCCCn2cccn2)cc1OC1CCN(C(C)=O)CC1
-29	-87%	12%	0.0%	C=CCn1c(C)cc(C(=O)COC(=O)c2ccc(N)c([N+](=O)[O-])c2)c1C
-5	3%	-8%	4.9%	CCOc1cc(/C=N/NC(=O)c2ccc(CSc3nncn3C)cc2)ccc1OCC(=O)N1CCOCC1
/	1%	4%	-3.1%	CCOc1ccc(-c2c(C(=O)N/N=C(\C)c3ccccc3OC)nnn2-c2nonc2N)cc1
0	-11%	-7%	0.0%	CC(C)(C)N(C=C(Cl)Cl)C(=O)NC1CCCCC1
10	-9%	5%	-1.1%	c1ccc2c(c1)NC1(CCCCCC1)n1c-2nc2ccccc21
/	4%	4%	-3.1%	Cc1c(C(=O)Nc2ccc(C(F)(F)F)cc2)sc2ncn(CC(=O)N3CCN(c4ccccn4)CC3)c(=O)c12
-10	3%&-10%	3%	3.4%	CCOC(=O)CSc1ncnc2c1c(-c1ccccc1)cn2-c1ccc(OC)cc1
5	8%	-4%	-0.1%	O=C(O)CCCN1C(=O)/C(=C/c2ccncc2)SC1=S
/	/	1%	4.8%	CCCNC(=O)c1ccc(N2CCC3(CC2)CC(c2cccc(Br)c2)=NO3)c(NC(=O)c2ccc(Br)cc2)c1
/	-3%&-6%	-1%	-0.2%	Cc1cc(=O)n2nc(N3CCC(C(=O)NCc4ccccc4)CC3)sc2n1
-5	1%	2%	-0.4%	CSCCC(NC(=O)C1CCC(C)CC1)C(=O)O (stereo not drawn)
-3	-14%	8%	-0.1%	CCOC(=O)c1c(N)c2cc([N+](=O)[O-])ccc2n1C
-15	-2%	-8%	1.1%	CC(C)(C)C(=O)N1CCC(O)(CS(=O)(=O)Cc2ccc(Cl)cc2)CC1
/	/	7%	1.9%	O=C1/C(=C/c2cccnc2)SC(=S)N1Cc1ccco1
-4	0%	-3%	0.9%	CNC(=O)C1CC(=O)N(CCCc2ccccc2)C(=Nc2ccccc2)S1 (stereo not drawn)
/	/	-7%	-1.7%	C=CCN(c1ccccc1)S(=O)(=O)c1cccc(C(=O)N2CCCC2)c1
-9	1%	2%	-0.9%	Cc1ccc(Cl)cc1-n1c(=O)cc(N2CCN(C(=O)c3ccco3)CC2)[nH]c1=O
-2	0%	4%	5.0%	Cc1ccc(N=Cc2c(O)n(C)c(=O)n(C)c2=O)nc1
0	-12%	19%	-1.1%	Cc1ccc(Cl)cc1NC(=O)Cn1cc2c(n1)CCCC2
/	/	-2%	-2.6%	CC(C)Cn1c(N)c(C(=O)COC(=O)Cc2cccc(C(F)(F)F)c2)c(=O)n(C)c1=O
-5	22%	11%	-4.7%	CCOC(=O)c1ccc(N2CCCCC2)c(NS(=O)(=O)c2ccc(C)cc2)c1
/	-6%	-7%	-4.5%	Cc1cccc(OCC(=O)NCc2ccc(F)cc2)c1

Later entries
GLA inh pH 4.5	miR-21 FLuc	Rango dissoc inh	Rango-impB inh	Compound
/	/	-11%	0.8%	O=C(CNC(=O)c1ccccc1Cl)Nc1ccncc1
-4	-2%	1%	3.0%	CC1CCCN(C(=O)c2ccccc2OC2CCN(S(C)(=O)=O)CC2)C1 (stereo not drawn)
9	-10%	/	/	Cc1sc2c(c1C)C(=O)NC(c1cccc(O)c1)N2 (stereo not drawn)
/	/	-15%	0.1%	CCN(c1cccc(C)c1)S(=O)(=O)c1cc2c3c(c1)CCN3C(=O)CC2
/	-5%	-2%	-3.0%	CCOc1cc(/C=C2\C(=N)N3N=C(S(C)(=O)=O)SC3=NC2=O)ccc1OCCOc1cccc(OC)c1
-6	-29%	-8%	6.8%	Cn1cccc1-c1nc2ccc(NC(=O)c3ccccc3)cc2[nH]1
/	0%	13%	0.4%	CCc1ccc(-c2cc(C)no2)cc1S(=O)(=O)N1CCN(c2ccccc2OC)CC1
/	/	11%	-1.9%	CC(=O)Nc1ccc(S(=O)(=O)NCc2nnnn2-c2ccc(F)cc2)cc1
-4	-2%	9%	-0.8%	C=C(C)CNC(=S)N/N=C/C1=CCC2CC1C2(C)C (stereo not drawn)
-12	-11%	1%	-0.7%	Cc1cccc(OCc2nc(C)cc(=O)[nH]2)c1
7	-1%	-4%	3.1%	CC(=O)c1ccc(Oc2nc(-c3cccnc3)nc3ccccc23)cc1
/	/	-1%	-1.8%	CCN(C(=O)COC(=O)c1cc(C)oc1C)c1c(N)n(Cc2ccccc2)c(=O)[nH]c1=O
-1	2%	1%	-3.9%	CC(=O)Cc1nsc(NC(=O)c2ccc(-c3cccc(Cl)c3)o2)n1
4	-6%	21%	6.8%	O=C(c1ccccc1-c1nc2ccccc2[nH]1)N1CCCCC1
-1	-3%	26%	-0.6%	C=CCC(NCc1ccco1)c1ccc(OC)c(OC)c1 (stereo not drawn)
/	-9%	1%	0.2%	CC(=O)C1=C(O)C(=O)N(c2ccc(O)cc2)C1c1cccc(F)c1 (stereo not drawn)
1	-26%	-21%	?	Cc1ccc(-n2c(C)cc(/C=N/Nc3ccc([N+](=O)[O-])cn3)c2C)cc1
/	-6%	0%	-0.6%	CCCCn1c(N)c(N(CCC(C)C)C(=O)CN2C(=O)C3CCCCC3C2=O)c(=O)[nH]c1=O (stereo not drawn)
/	/	?	?	NC(=O)c1nc(-c2ccccc2)c(-c2ccccc2)[nH]c1=O
9	28%	-5%	-2.7%	COc1ccc2[nH]c3c(c2c1)CCNC3C1CC=C(C)CC1 (stereo not drawn)
/	/	15%	-1.3%	COc1ccc(C(CNC(=O)c2[nH]c(C)c(C(C)=O)c2C)N2CCOCC2)cc1 (stereo not drawn)
0	?	20%	0.9%	COc1ccc(C[C@H]2CN3C(=NC[C@@H]3Cc3ccc(O)cc3)N2C[C@H](C)NC(=O)c2ccc(C)c(Br)c2)cc1
-9	-4%	11%	-4.0%	CC1CCN(C(C(=O)Nc2ccc(C(C)C)cc2)c2ccc3c(c2)OCO3)CC1 (stereo not drawn)
1	-22%	9%	5.0%	Cc1ccc(C(=O)Nc2nccc(-c3cccs3)n2)cc1
2	-2%	-10%	-6.0%	Cc1[nH]ccc(=O)c1OCc1c(Cl)cccc1Cl
/	-2%	0%	5.9%	Cc1ccnc(NC(=O)C2CCCN(S(=O)(=O)c3ccc4[nH]c(=O)ccc4c3)C2)c1 (stereo not drawn)
/	?	-12%	-1.7%	O=C(NCc1ccc2c(c1)OCO2)c1nc(S(=O)(=O)Cc2ccccc2)ncc1Cl
/	/	-7%	-3.8%	Cc1ccsc1CNc1ncnc2ccc(-c3c(C)noc3C)cc12
-3	16%	?	?	COc1ccc2c(c1)C1C=CCC1C(c1cc3c(cc1Br)OCO3)N2 (stereo not drawn)
-1	1%	2%	1.7%	COc1cc(C(=S)N2CCN(C)CC2)ccc1OCC(=O)NCc1ccccc1
0	-33%	/	/	Cc1ccnc(NC(=O)CSc2nnc3c(n2)[nH]c2ccccc23)c1

Screening results from PubChem.

These rows are one share of the data; count on the stated rates, not on these rows.
